Screening results as filed in PubChem.
PINK1 expr mod: changes PINK1 expression; AID 624263; PINK1 immunofluorescence, high-content cytometry, 24 h; Potency, µM (titrated, usually from 76.6 µM), inactives show at the highest dose activation (PINK1 increase), usual class: activators; 410,000 tested, 0.2% active; active = well fitted activation curve with a large enough effect; inconclusive = small, poorly fitted or top-dose-only effect; inactive = flat fitted curve, though single readings scatter; cell line not stated here;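 further: potency means the concentration at half of the fitted maximal effect; % of control where 0% means no effect; nearly all actives have a fitted effect of over 65% in size; a mitochondrial uncoupler was the plate control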
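Fluorescence from anti-PINK1 antibody, together with nuclear and cell stains, was scanned on a laser-scanning cytometer. Before staining, stable-line cells were incubated 24 hours with compounds at 5 concentrations; primary antibody 12 h at 10 degrees C.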
CtBP-E1A blk: inhibitors of CtBP/E1A interaction; AlphaScreen GST-E1A/His-CtBP binding, 1536-well; stronger effect = lower value; control for the full effect not named in the record; activity change, % (concentration not given with the values); 340,000 tested, 0.49% active; in the data active means activity change below about -65%; inconclusive means about -30% to -65%; inactive means above about -30%; further: on the % scale 0 is the no-effect control and ±100 the full control effect
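GST-E1A and His-tagged CtBP (125 nM each as 5X stock) were preincubated with pin-transferred compound for 2 h at 37 °C in the dark, then glutathione donor and nickel acceptor beads were added for 1 h before AlphaScreen reading.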
D2 agonist: human D2 receptor agonism in beta-arrestin assay; P14416; DiscoveRx PathHunter D2 beta-arrestin, luminescence, 90 min; 100% = 57 uM dopamine signal; activation, % (test concentration not listed); 360,000 tested, 0.084% active; AID 624465; in the data active = activation above about 40%; inconclusive = about 15% to 40%; inactive = below about 15%; further: compound concentration not given in the record; the text of the record calls up to 30% inactive
Target sequence (P14416 whole entry, looked up): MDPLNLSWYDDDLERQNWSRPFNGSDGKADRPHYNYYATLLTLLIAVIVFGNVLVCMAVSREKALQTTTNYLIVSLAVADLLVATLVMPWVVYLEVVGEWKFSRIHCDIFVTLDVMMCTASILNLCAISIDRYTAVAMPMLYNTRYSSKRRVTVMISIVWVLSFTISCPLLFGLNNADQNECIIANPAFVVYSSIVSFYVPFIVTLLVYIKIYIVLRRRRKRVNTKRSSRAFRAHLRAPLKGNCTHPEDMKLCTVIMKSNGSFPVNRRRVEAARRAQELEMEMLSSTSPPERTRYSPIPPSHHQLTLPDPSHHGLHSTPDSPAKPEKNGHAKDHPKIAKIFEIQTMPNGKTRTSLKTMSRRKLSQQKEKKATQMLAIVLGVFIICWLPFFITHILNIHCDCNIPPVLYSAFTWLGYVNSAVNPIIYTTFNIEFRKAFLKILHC
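Agonist mode: compounds alone added to overnight-plated D2 PathHunter cells for 90 min at 37 C, with 57 uM final dopamine (EC100) defining full response. Beta-arrestin recruitment detected by chemiluminescent reagent, read after 1 h at ambient temperature.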
Six1-Eya2 blk: Six1/Eya2 interaction inhibition; AlphaScreen GST-Six1/His-Eya2 binding, biochemical; stronger effect = lower value; control for the full effect not named in the record; 360,000 tested, 0.56% active; activity change, % (test concentration not listed); Q15475+O00167; AID 651725; in the data active = activity change below about -65%; inconclusive = about -30% to -65%; inactive = above about -30%; further: on the % scale 0 is the no-effect control and ±100 the full control effect; compound concentration not given in the record
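GST-Six1 + His-Eya2 (5X stock: 250/500 nM); Tris pH 8.0, 300 mM NaCl, 0.05% BSA, 0.02% Tween 20; GSH donor/Ni acceptor beads; 1 h 37 °C dark; AlphaScreen readout.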
D2 PAM: potentiates the human D2 dopamine receptor allosterically; potentiation, % (no concentration beside the values); 360,000 tested, 0.23% active; AID 624464; P14416; DiscoveRx D2 beta-arrestin cells, luminescence, 90 min; 100% = 57 uM dopamine signal; active = potentiation of 50% or more; inconclusive = 30% to 50%; inactive = 30% or less;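 further: compound concentration not given in the record; tested on top of an EC20 dose of dopamine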
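D2 cells co-treated with compound plus 50 nM dopamine (EC20) for 90 min at 37 deg C to detect potentiation. Beta-arrestin recruitment was read as enzyme-fragment luminescence after 1 h at ambient temperature. Full response was set by 57 uM dopamine.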
TRPML1 ag: human mucolipin-1 channel agonism; Q9GZU1; AID 624414; activation, % (test concentration not listed); 410,000 tested, 0.12% active; TRPML1-expressing cells, Ca2+ dye fluorescence, FDSS; host cell line not named in the record; reference of the full effect not given here; in the data active = activation above about 50%; inconclusive = about 30% to 50%; inactive = below about 30%; further: 0% is about no effect; the text of the record puts the active cut at 80%
Target sequence (Q9GZU1 whole entry, looked up): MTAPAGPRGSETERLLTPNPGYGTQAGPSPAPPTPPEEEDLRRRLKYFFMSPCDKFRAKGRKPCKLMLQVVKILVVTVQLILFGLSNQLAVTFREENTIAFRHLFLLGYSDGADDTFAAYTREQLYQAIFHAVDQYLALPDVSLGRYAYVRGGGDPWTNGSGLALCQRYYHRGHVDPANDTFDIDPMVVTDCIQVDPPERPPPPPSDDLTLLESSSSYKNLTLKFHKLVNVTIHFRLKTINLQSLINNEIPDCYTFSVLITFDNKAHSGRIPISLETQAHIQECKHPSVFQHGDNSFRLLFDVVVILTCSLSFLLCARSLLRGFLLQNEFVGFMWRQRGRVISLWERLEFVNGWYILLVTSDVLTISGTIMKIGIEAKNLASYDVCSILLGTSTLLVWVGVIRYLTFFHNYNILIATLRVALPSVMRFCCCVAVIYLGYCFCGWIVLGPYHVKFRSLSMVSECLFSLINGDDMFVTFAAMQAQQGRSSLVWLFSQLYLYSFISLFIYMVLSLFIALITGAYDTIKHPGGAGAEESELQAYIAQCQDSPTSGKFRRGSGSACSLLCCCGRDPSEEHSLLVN
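Agonist activity was taken from a 110 s kinetic Ca2+ dye read on the FDSS after pinning compounds onto TRPML1-DL cells. The cells were seeded at 1,500/well with Tet inducer, incubated about 16 h, then dye-loaded at room temperature.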
The depositor's hits bear a star; ? = inconclusive; . = no result given; [ ] = another dose, or the depositor's remark.

The line under a structure holds: PINK1 expr mod, CtBP-E1A blk, D2 agonist, Six1-Eya2 blk, D2 PAM, TRPML1 ag
CCCCOC(=O)C1=C(C)NC(=O)NC1c1cccc([N+](=O)[O-])c1 (stereo not drawn)
→ 0.3%, -11, -3.7, -1, -4, 1.0
Cc1ccc(Cn2ccnc2C(=O)Nc2ccccc2)cc1
→ 2.4%, 4, -4.3, 14, -3, 0.2
COc1ccc([C@H]2C[C@@H](n3cc(C4CC4)nn3)[C@H](O)CN2CC2CCCCC2)cc1
→ 29%, -1, -8.3, -14, -1, 1.7
O=c1oc2ccccc2c(O)c1Sc1ccc(Cl)cc1
→ -1.5%, ., 1.9, 2, 3, 1.1
Cc1cccc(C(=O)O/N=C(\N)c2ccc(Br)cc2)c1
→ 4.7%, 12, ?, 11, 138*, -0.1
CCCc1cc2c(cc1NC(=O)c1ccc(C(C)(C)C)cc1)OCO2
→ 11%, 9, -5.6, -11, -29, -0.3
C=C(C)C1Cc2c(C)nn(-c3cccc4cccnc34)c2C1 (stereo not drawn)
→ 0.5%, 5, -2.0, -4, -4, .
CCc1nnc(NC(=O)CSc2nnc(COc3ccc(C#N)cc3)n2-c2ccccc2)s1
→ -3.5%, 3, -2.2, -2, -22, 1.3
CC(C)N(C(=O)[C@H]1C[C@H](CC(=O)NCc2ccco2)C(=O)N2CCc3c([nH]c4ccc(Cl)cc34)[C@]12C)C(C)C
→ 20%, -10, -0.6, -15, -7, -0.5
CCOC(=O)C1CCN(C(=O)C2CCN(S(=O)(=O)N3CCC4(CC3)OCCO4)CC2)CC1
→ -0.8%, 4, -1.4, 3, -6, 0.2
O=C(CSc1oc(-c2ccc(F)cc2)nc1S(=O)(=O)c1ccc(F)cc1)NCC1CCCO1 (stereo not drawn)
→ 5.4%, 6, 1.2, 6, 1, 0.9
Cc1ccc(SC(CC(=O)c2ccc(F)cc2)C(=O)O)cc1 (stereo not drawn)
→ 4.2%, 3, -2.2, -4, -7, 0.0
CCSC1=C(C#N)C2(CCCCC2)C(C#N)=C(N)N1
→ 0.1%, 2, 2.4, 2, 5, 0.7
CC(C)c1cc(C(=O)O)n[nH]1
→ 12%[38.3 µM], 1, 0.8, 0, 8, -0.4
C[C@H]1CN([C@@H](C)CO)S(=O)(=O)c2ccc(C#CC3CC3)cc2O[C@H]1CN(C)C(=O)c1cccnc1
→ 1.4%, 6, -2.1, -1, ., .
CN1CCN(S(=O)(=O)c2ccc(C(=O)NC3CCCCC3)cc2)CC1
→ -0.6%, -9, -2.2, 3, -3, 0.6
Cn1[nH]c(CSc2ccc(Cl)cc2)cc1=O
→ 2.5%, 2, 0.5, -2, 1, -0.2
COc1ccc(C2CC(c3cccs3)=NN2C(=S)Nc2ccccc2)cc1OC (stereo not drawn)
→ 2.6%, -16, -3.4, -14, 23, 1.2
CCSc1nc2ccccc2c(=O)n1Cc1ccc(F)cc1
→ 4.7%, 2, -1.7, 32, -3, 2.4
O=C(CCN1CCOCC1)c1ccc(N2CCCCC2)cc1
→ 9.8%, ., -4.3, 13, -10, 2.4
CNC(=S)NC1CC2CCCC(C1)N2Cc1ccc(C)cc1 (stereo not drawn)
→ -1.3%, ., -4.5, 7, -20, -0.3
O=C(CSc1nc(-c2ccccc2)nc2ccccc12)Nc1nccs1
→ 15%[38.3 µM], 4, -1.3, -2, -19, 1.4
Cc1ccc(-c2nnn(CC(=O)Nc3ccc(S(=O)(=O)N4CCC(C)CC4)cc3)n2)cc1
→ 16%, 5, 2.5, 1, 8, -0.1
Cc1ccc(S(=O)(=O)N2CCc3ccccc3C2)cc1C
→ -2.4%, 11, -1.2, 14, -1, 1.8
O=C(O)C1CCCCC1C(=O)Nc1cnn(Cc2ccccc2)c1 (stereo not drawn)
→ -0.1%, -1, -4.3, 1, -7, 0.4
COc1ccccc1CNC(c1ccccc1)c1ccccc1
→ 2.9%, 15, 0.9, 22, -5, 1.9
COc1ccc([C@H]2CC(=O)C=C(c3ccc(-c4ccccc4)cc3)C2)cc1OC
→ 1.5%, 0, 2.3, 11, -8, 2.0
COc1cccc(-c2noc(CCCC(=O)N3CCOCC3)n2)c1
→ 0.8%, 1, 1.8, 6, -6, -0.9
Cc1ccc2c(cnn2C(=O)CCCC(=O)NC(C)c2ccccc2)c1 (stereo not drawn)
→ 0.4%, -11, -4.2, 1, -3, 0.2
CCOc1cc(/C=C2/C(=N)N3N=C(C)SC3=NC2=O)ccc1OS(=O)(=O)c1ccc(C)cc1
→ 1.6%, -15, -1.2, -3, -6, 1.4
CC(=O)Nc1nc(-c2cccc3ccccc23)cs1
→ 2.7%, 6, -2.9, -6, -1, -0.3
COc1ccc(S(N)(=O)=O)cc1C(=O)NCC(C)(C)N1CCOCC1
→ 4.7%, 0, -2.8, 8, -2, 0.5
COc1ccccc1NC(=O)CSc1ccc(-c2cccs2)nn1
→ 0.6%, -8, -3.4, -2, 4, 0.1
CCCSc1nc(N)nc(-c2cccs2)c1C#N
→ 1.2%, -12, -1.1, 0, -4, 1.9
Cc1ccc(CNC(=O)CSc2nnc(CNC(=O)c3ccccc3)o2)cc1
→ 1.3%, -6, -0.1, 22, -6, -0.1
CCN(CC)S(=O)(=O)c1ccc(N2CCOCC2)c(NC(=O)C2CCCC2)c1
→ 4.2%, 6, -2.5, 16, -11, -0.5
COc1ccc(CNC(=O)Nc2cccc(C(F)(F)F)c2)cc1OC
→ 1.8%, 7, -0.8, 5, -28, 1.6
Cc1cc(NS(=O)(=O)c2ccc(NC(=O)COc3ccccc3[N+](=O)[O-])cc2)no1
→ -0.3%, -4, -4.0, -9, -16, -0.4
S=C(Nc1ccccc1Cl)N1CCN(Cc2ccccc2)CC1
→ -1.0%, 6, -1.1, 2, -31, -0.4
CC(C)NC(=O)N(C)C[C@H]1Oc2c(NS(=O)(=O)c3ccccc3)cccc2C(=O)N([C@H](C)CO)C[C@@H]1C
→ 0.4%, 3, -1.0, 0, -5, -0.2
O=C(Nc1nc2ccccc2[nH]1)c1ccccc1
→ 6.1%, -1, -0.8, 2, -16, 0.0
CC(C)OC(=O)CSc1nnc(-c2ccc(Cl)cc2Cl)o1
→ 0.4%, 20, -1.5, 7, -5, 0.5
COC(=O)CNC(=O)C1CCN(c2nc(C)cc(C)n2)CC1
→ 3.7%[38.3 µM], 7, -3.1, 1, -8, -0.4
NS(=O)(=O)c1ccc(NC(=O)CSc2nnc(-c3cnccn3)n2-c2ccccc2)cc1
→ -1.2%, -1, -3.8, -7, 7, -0.9
CC(=O)OC1COC(n2c(O)c(N=NC(N)=S)c3ccccc32)C(OC(C)=O)C1OC(C)=O (stereo not drawn)
→ 2.5%, -4, -10, -9, -6, -0.1
NC(=O)NC(CC(=O)NCc1ccc2c(c1)OCO2)c1ccccc1Cl (stereo not drawn)
→ -0.9%, 1, -1.0, 7, -14, 0.3
Cc1ccccc1OCCC(=O)OCC(=O)Nc1ccc2[nH]c(=O)[nH]c2c1
→ -1.9%, 6, 0.9, 4, -14, 0.1
COc1ccc(NC(=O)CSc2sc3c(O)cc(=O)[nH]c3c2C#N)c(OC)c1
→ -2.4%, -1, 4.2, -18, -3, -0.3
Cc1ccc(N(CCC#N)C(=O)COC(=O)c2ccccn2)cc1
→ -0.2%, -6, -2.0, -5, -13, 0.4
O=C(CCNS(=O)(=O)c1ccc(F)c(Cl)c1)NCc1ccccc1F
→ -0.6%, -4, 1.3, 2, 0, 1.4
CC(C#N)OC(=O)c1cccnc1SCC(=O)Nc1ccc2c(c1)OCO2 (stereo not drawn)
→ 4.6%, -10, 0.3, 1, -7, 1.9
COc1ccc(OC)c(NC(=O)c2cnn(-c3ccccc3Cl)c2NC(=O)c2ccco2)c1
→ 5.3%[38.3 µM], 7, -2.7, 5, 3, 1.3
COc1cc(OC)cc(-c2c(C#Cc3ccsc3)c3cc(-c4cc(F)cc(F)c4)ccc3n2C)c1
→ -0.5%, 0, -0.2, 4, -3, -0.2
O=C(CP(=O)(O)CC(=O)c1ccccc1)c1ccccc1
→ 0.2%, 2, -1.8, -1, -5, -0.3
Cc1cccc(Nc2nc(N)nc(CN3CCN(c4ccccc4)CC3)n2)c1
→ -1.6%, -22, ?, -8, ?, -1.4
COc1cc2c(cc1OC)C(C1C(=O)CCCC1=O)N(C(=O)CCl)CC2 (stereo not drawn)
→ 0.2%, ., 2.7, 5, -1, -0.5
COC(=O)c1ccc(COC(=O)c2cccnc2Cl)cc1
→ -0.7%, 2, -2.1, 5, -2, 1.8
COc1ccc(-c2nc(CS(=O)CC(=O)N3CCCC3)c(C)o2)cc1 (stereo not drawn)
→ -1.1%, -1, 2.4, 2, -6, 0.2
COc1ccccc1C(=O)Nc1ccccc1N1CCCCC1
→ 4.4%, 6, -1.7, 18, -1, 3.0
Nc1c(C(=O)CSc2nnnn2-c2ccccc2)c(=O)[nH]c(=O)n1C1CC1
→ 0.2%, 8, -3.8, 1, -3, 0.8

Next results:
The line under a structure holds: PINK1 expr mod, CtBP-E1A blk, D2 agonist, Six1-Eya2 blk, D2 PAM, TRPML1 ag
Cc1cccc(C(=O)NC(=S)NNC(=O)Cc2ccccc2)c1
→ 1.2%, -5, -6.6, 20, 18, 21
O=C(NCc1ccc(F)cc1)c1cccnc1C(=O)O
→ 1.7%, -4, -2.6, -4, -6, -0.9
Cn1c(=O)c2c(nc(CN3CCC(C(N)=O)CC3)n2Cc2ccccc2Cl)n(C)c1=O
→ -2.6%, 3, -0.1, -1, -3, -0.9
CCn1c(NC(=S)Nc2ccccc2)nc2ccccc21
→ 1.9%, -3, -2.0, 1, -7, 0.4
C[C@@H]1CC[C@@]2(OC1)O[C@H]1C[C@H]3[C@@H]4CC=C5C[C@@H](O)[C@H](O)C[C@]5(C)C4CC[C@]3(C)[C@H]1[C@@H]2C (stereo partly drawn)
→ 1.3%, ., -1.3, 0, -12, 0.1
COc1ccc(/C=N/Nc2ncccc2[N+](=O)[O-])c(OC)c1
→ 0.1%, ., 0.2, ?, 16, 1.9
CN(C)S(=O)(=O)c1cccc(C(=O)NCCc2ccccc2)c1
→ 0.4%, 5, -1.4, 7, -23, -0.5
COc1ccc2c(c1)CC=C1C2CCC2(C)C(=O)C(=NO)CC12 (stereo not drawn)
→ -1.6%, -1, -0.8, -6, -37, 0.7
CCC(CC)c1nnc(NC(=O)C2CC(=O)N(CCc3ccc(OC)c(OC)c3)C2)s1 (stereo not drawn)
→ -0.3%, -1, -5.0, 3, -7, 0.3
Cc1csc(N2CCCC2c2nc3cc(Cl)c(N4CCCCC4)cc3n2CCCO)n1 (stereo not drawn)
→ 1.0%, -10, -2.5, 1, -13, 0.1
